Methyltransferases: Primary Screen for Target Class Profiling of Small Molecule Inhibitors of Methyltransferases; purified enzyme, MTase-Glo SAH luminescence; hits give low values; calls only at 40 µM; hit rate 3.9% among 25,000; AID 1745853, 2022; active = -50% or lower on at least one of six enzymes; inconclusive = the cases between; inactive = as a rule above -30% on all six;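 further: enzymes were COMT GAMT GNMT HNMT NNMT and PNMT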
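Each enzyme was assayed with SAM and its substrate. SAH formation detected by MTase-Glo luminescence; single-point 40 uM screen[…].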
Calls only; i = inactive; ? = inconclusive; + = active, no number. On the % scale 0 is the no-effect control and ±100 the full control effect. A portion of the library, so the mix of outcomes need not match the whole.

SMILES	Methyltransferases
CC(C)c1ccc(CC(=O)N2CCCc3ncc(C(=O)NCCc4c[nH]c5ccccc45)cc32)cc1	i
CN(C)Cc1cc(CC2(NCc3cccc4c3OCO4)COC2)no1	i
C=CCCC(CN1CCCC1)Oc1ccc(C(=O)NCC)cn1 (centres undefined)	i
CS(=O)(=O)c1ccccc1N1CCN(c2nc3c(c(=O)[nH]2)CSCC3)CC1	i
Cc1ccc(C2=NC3(CCN(C(=O)c4ccc(C)c(C)c4)CC3)ON2)cc1	i
CCOC(=O)c1cc2n(n1)CC(C)(C(=O)NCCC(C)C)N(c1ccc(C)c(Cl)c1)C2=O (centres undefined)	i
CN1C(=O)c2cc(C(=O)NCc3ccc(F)cc3)nn2CC1(C)C(=O)NCc1ccccc1 (centres undefined)	i
CCN(CCCNC(=O)CCc1nnc2n(Cc3ccccc3)c(=O)c3ccccc3n12)c1cccc(C)c1	i
COc1cccc([S+](=O)([O-])N2CCC23Cc2ccccc2NC3=O)c1 (centres undefined)	i
CCN(CCCNC(=O)CCc1nnc2n(Cc3ccc(C)cc3)c(=O)c3ccccc3n12)c1cccc(C)c1	i
CCNC(=O)[C@@H]1C[C@H](N)CN1C(=O)c1cnc(-c2cccnc2)nc1C	i
Cc1ccc(NC(=O)Cn2nc3n(CCC(C)C)c(=O)c4ccc(C(=O)NC(C)C)cc4n3c2=O)cc1	i
C=CC(=O)Nc1cccc(Oc2nc(Nc3ccc(N4CCN(C)CC4)cc3OC)ncc2Cl)c1	i
C/C(=C\CCC(C(=O)O)C1CCC2(C)C3=C(CCC12C)C1(C)CCC(=O)C(C)(C)C1CC3)C(=O)O (centres undefined)	i
COC(=O)c1ncn2c1C(=O)N(c1ccc3c(c1)OCO3)C(C)(C(=O)NCc1ccccc1)C2 (centres undefined)	i
CCCC1c2ccc(C)n2CCN1C(=O)Nc1ccc(F)cc1F (centres undefined)	i
CC1(C(=O)NCc2ccccc2)Cn2c(cc3ccccc32)C(=O)N1Cc1ccccc1F (centres undefined)	i
CCc1cc2c(cc3n2CC(C)(C(=O)NC2CCCCCC2)N(Cc2ccc(OC)cc2)C3=O)s1 (centres undefined)	i
COc1ccccc1C(=O)N1CCC2(C1)NC(=O)c1ccccc1CO2 (centres undefined)	i
COc1nccnc1NC1CCN(C(=O)Cc2c(C)noc2C)CC1	i
Cc1cnc(CCNC(=O)C2CC=CC2)n1C1CC1	i
Cc1ccc(N2C(=O)c3cc4occc4n3CC2(C)C(=O)NC2CCCCC2C)cc1 (centres undefined)	i
CC(C)CN1C(=O)c2cccn2CC1C(=O)N(C)Cc1cccnc1 (centres undefined)	i
COc1ccc2cc3n(c2c1)CC(C)(C(=O)NC1CCCCC1)N(CCCN1CCCCC1)C3=O (centres undefined)	i
COc1cccc(NC(=O)CCc2nnc3n(Cc4ccc(C)cc4)c(=O)c4ccccc4n23)c1	i
CCOCCCNC(=O)c1cc2n(n1)CC(C)(C(=O)NC1CCCC1)N(C)C2=O (centres undefined)	i
CCCn1c(=O)c2ccc(C(=O)NC3CCCC3)cc2n2c(=O)n(Cc3ccc(Cl)cc3)nc12	i
Cc1cc2ncc(C(=O)NCc3ccccc3Cl)cn2n1	i
Cn1c(=O)n(C)c2cc(S(=O)(=O)N3CCN(c4ccccc4)CC3)c(Cl)cc21	i
CCCn1c(=O)c2ccc(C(=O)NC3CCCCC3)cc2n2c(=O)n(Cc3ccc(F)cc3)nc12	i
COc1ccc(-c2n[nH]c3c2CC(=O)N(c2ccccc2)C3)cn1	i
COc1cccc(NC(=O)CSc2nnc3n(CC(C)C)c(=O)c4ccc(Cl)cc4n23)c1	i
CC(C)=CCc1cc2c(cc1O)OC[C@H]1c3ccc(O)cc3O[C@@H]21	?
CC1(C(=O)NC2CCCCCC2)Cn2c(cc3sccc32)C(=O)N1c1cccc(Cl)c1 (centres undefined)	i
CCOc1ccc(C(=O)Cn2nc3n(C)c(=O)c4ccc(C(=O)NC5CCCC5)cc4n3c2=O)cc1	i
CC1(C(=O)NC2CCCCCC2)Cn2c(ccc2-c2ccco2)C(=O)N1Cc1ccccn1 (centres undefined)	i
COCCCN(CCC(=O)NCc1ccc2c(c1)OCO2)C(=O)c1cc(C)oc1C	i
O=C(NC1CCCCC1)c1ccc2oc(-c3ccnc(Cl)c3)nc2c1	i
Cn1nccc1-c1cc2c(cn1)CN(Cc1ccncc1)CCN2	+
CC(C)OC(=O)N1CCC(COc2ccc3c(cnn3CCC(=O)O)c2)CC1	i
Cc1[nH]cnc1CN1CCc2nc(C(=O)NCCOc3ccccc3)oc2CC1	i
COc1ccc(NC(=O)N2CCn3cccc3C2C)c(OC)c1 (centres undefined)	i
CC(C)[C@@H]1CN(C(=O)CCCn2cncn2)C[C@H]1NS(=O)(=O)N(C)C	i
O=C(O)CCc1nccc2c1[nH]c1ccccc12	i
O=C(CCn1ccc2cc(S(=O)(=O)N3CCCC3)ccc21)NCCc1ccc(Cl)cc1	i
COc1ccccc1CN1C(=O)c2ccc(-c3ccco3)n2CC1(C)C(=O)NC1CCC(C)CC1 (centres undefined)	i
O=C(OCCOCCO)c1ccccc1Nc1cccc(C(F)(F)F)c1	i
C[C@H](O)[C@H](O)[C@H]1CNc2nc(N)[nH]c(=O)c2N1	i
c1csc(CN2CCC(Oc3ccccc3-c3nc(-c4cnccn4)no3)C2)c1 (centres undefined)	i
Cc1ccccc1CCNC(=O)Cn1ccc2cc(S(=O)(=O)N3CCCCC3)ccc21	i
COc1ccc2ccc(OCc3nc(C(=O)N4CCCNC(=O)C4)co3)cc2c1	i
Cc1ccc(C)c(S(=O)(=O)c2nnn3c2nc(NCc2ccccc2)c2ccccc23)c1	i
N#Cc1cc2c(=O)n(CCCCN3CCCC3)ccc2[nH]c1=O	?
CC1=C[C@@H](CNC(=O)c2cnccn2)[C@H](C(C)C)C[C@H]1CC(=O)O	i
COc1ccc(-c2cc3n(n2)CC(C)(C(=O)NCc2ccccc2OC)N(Cc2ccc(F)cc2)C3=O)cc1 (centres undefined)	i
CCC1c2ccc(C)n2CCN1C(=O)Nc1ccc2c(c1)OCCO2 (centres undefined)	i
CC1CCCCC1NC(=O)C1(C)Cn2c(cc3occc32)C(=O)N1CCN(C)C1CCCCC1 (centres undefined)	i
COC(=O)C1(C)CCCC2(C)c3ccc(C(C)C)cc3C(O)C(O)C12 (centres undefined)	i
Cc1cc(C)cc(NC(=O)Cn2nc3n(CC(C)C)c(=O)c4ccccc4n3c2=O)c1	i
COCCN1C(=O)c2ccc(-c3ccco3)n2CC1(C)C(=O)NC1CCCCCCC1 (centres undefined)	i

The list goes on; it opens with the 6 that closed the last part.
SMILES	Methyltransferases
COc1ccc(-c2cc3n(n2)CC(C)(C(=O)NCc2ccccc2OC)N(Cc2ccc(F)cc2)C3=O)cc1 (centres undefined)	i
CCC1c2ccc(C)n2CCN1C(=O)Nc1ccc2c(c1)OCCO2 (centres undefined)	i
CC1CCCCC1NC(=O)C1(C)Cn2c(cc3occc32)C(=O)N1CCN(C)C1CCCCC1 (centres undefined)	i
COC(=O)C1(C)CCCC2(C)c3ccc(C(C)C)cc3C(O)C(O)C12 (centres undefined)	i
Cc1cc(C)cc(NC(=O)Cn2nc3n(CC(C)C)c(=O)c4ccccc4n3c2=O)c1	i
COCCN1C(=O)c2ccc(-c3ccco3)n2CC1(C)C(=O)NC1CCCCCCC1 (centres undefined)	i
CC1(C(=O)NC2CCCCCC2)Cn2c(cc3occc32)C(=O)N1c1cccc(Cl)c1 (centres undefined)	i
COc1ccc(CNC(=O)O[C@H]2COCCN(c3nc4ccccc4s3)C2)cc1	i
CC1(C(=O)NC2CCCCC2)Cn2c(cc3sccc32)C(=O)N1Cc1ccccn1 (centres undefined)	i
C=C1CCC2C(C)(C)C(O)CCC2(C)C1CCC(C)CCOC(=O)CCC(=O)O (centres undefined)	i
C1=CC2c3c(ccc4ccccc34)NC(c3cccc4ccccc34)C2C1 (centres undefined)	i
CC1(C)CC=C(c2cnc3ccccc3c2)c2cc(C(=O)Nc3ccc(C(=O)O)cc3)ccc21	i
CCn1c(=O)n(CC)c2cc(S(=O)(=O)Nc3ccc(OC)c(Cl)c3)ccc21	i
CCN1C(=O)c2c(C(=O)NCc3ccc(F)cc3)ncn2CC1(C)C(=O)NC1CCCC1 (centres undefined)	i
CC(O)C/C=C/C=C/C(=O)OC1C=C2COC(=O)C2(O)C2(C)CCCC(C)(C)C12 (centres undefined)	i
C[C@@H]1COCCN1c1cc(C2(S(C)(=O)=O)CC2)nc(-c2cccc3[nH]ccc23)n1	i
Cc1c(N2C(=O)c3ccc(C(=O)O)cc3C2=O)c(=O)n(-c2ccccc2)n1C	i
CCCS(=O)(=O)N1C[C@@H](Oc2cccnc2)C[C@H]1C(N)=O	i
O=C(NC[C@H]1O[C@@H](CC(=O)N2CCN(c3ccccn3)CC2)[C@H](O)[C@@H]1O)c1ccco1	i
CCc1nc(-c2ccc(OC3CCN(S(=O)(=O)Cc4ccccc4)C3)cc2)no1 (centres undefined)	i
COC1C(=O)N(CC2CC2)C12CCN(S(=O)(=O)c1ccc3c(c1)OCCO3)CC2 (centres undefined)	?
CCN1C(=O)CCc2cc(NC(=O)CC(C)C)ccc21	i
C=C(C)C(=O)O[C@H]1C[C@@](C)(O)C2(O)CCC(C)(/C=C3/OC(=O)C(COC)=C31)O2 (some centres undefined)	i
Cc1ccc(C(=O)Cn2nc3n(Cc4ccccc4)c(=O)c4ccccc4n3c2=O)cc1	i
CC1CCC2(C)C(CC(O)C(O)C23CO3)C1(C)CCC1=CC(=O)OC1O (centres undefined)	i
COc1ncc(-c2ccc3nccc(-c4ccnnc4)c3c2)cc1NS(=O)(=O)c1ccc(F)cc1F	+
CC(C)NC(=O)c1ccccc1OCC1CCCN(Cc2ccncc2F)C1 (centres undefined)	i
O=C(CCn1ccc2cc(S(=O)(=O)N3CCCC3)ccc21)NC1CC1	i
Cc1cc(C[C@@H]2COC[C@@H]2NC(=O)c2ccc(Oc3ccccc3)o2)on1	i
Cc1ccc(-n2nc(C)c([C@H]3C=C[C@@H](OC(=O)N[C@H](C)c4ccccc4)C3)c2C)cc1Cl	i
CN1C[C@H](C(=O)Nc2ccncn2)C[C@H]1c1cccc(C(F)(F)F)c1	i
COC1(CC(C)C)NC(=O)C(O)(Cc2ccccc2)NC1=O (centres undefined)	i
CCOc1ccc(N2C(=O)CSc3c(c4ccccc4n3C)C2C(=O)NCCC(C)C)cc1 (centres undefined)	i
C[C@]12CC[C@@H]3c4ccc(O)cc4CC[C@H]3[C@@H]1C[C@@H](O[C@@H]1O[C@H](C(=O)O)[C@@H](O)[C@H](O)[C@H]1O)[C@@H]2O	i
Cn1cc(-c2[nH]c3cc(NC(=O)[C@H](N)C4CCCCC4)cc4c3c2C=NNC4=O)cn1	?
CCn1c(=O)n(CC)c2cc(S(=O)(=O)Nc3cc(C)ccc3OC)c(Cl)cc21	i
O=C(NCc1ccncc1)c1ccc(-c2cccs2)nc1	i
CC1(C(=O)NC2CCCCCC2)Cn2c(ccc2-c2ccco2)C(=O)N1Cc1ccccc1F (centres undefined)	i
CC(=O)N1CCC(CC(=O)N2C[C@@H](Oc3ccccc3)C[C@H]2C(=O)N2CCOCC2)CC1	i
C[C@@]1(c2cc(-c3cncnc3)c(F)cc2F)CCSC(N)=N1	?
Cc1ccc(CNC(=O)C2(C)Cn3cnc(C(=O)NCCc4ccccc4)c3C(=O)N2C2CC2)cc1 (centres undefined)	i
C=C[C@H]1[C@H](O[C@@H]2O[C@H](CO)[C@@H](O)[C@H](O)[C@H]2O)OC=C(C(=O)OC)[C@H]1C/C=C(/C=O)[C@@H]1C(C(=O)OC)=CO[C@@H](O[C@@H]2O[C@H](CO)[C@@H](O)[C@H](O)[C@H]2O)[C@@H]1C=C	+
Cn1ccnc1CN1C(=O)CO[C@H]2CN(C(=O)c3cnccn3)C[C@H]21	i
O=C(N[C@@H]1CCCc2c1cnn2-c1ccc(F)cc1F)c1ccccn1	i
Cc1ccc(Cl)cc1NC(=O)CSc1nnc2n(CCCOC(C)C)c(=O)c3ccccc3n12	i
NC(=O)[C@H]1CCCCc2c1[nH]c1ccc(Cl)cc21	i
Cc1cc(Nc2ncnc3ccc(-c4ccc(CNCCS(C)(=O)=O)o4)cc23)ccc1Oc1ccn2ncnc2c1	?
CC(C)C[C@H]1NC(=O)[C@@H]2C[C@@H](NC(=O)CS(=O)(=O)c3ccccc3)CCN2C1=O	i
CC1=C(C(=O)OC(C)C)C(c2ccccc2Cl)CC(=O)N1Cc1c(F)cccc1F (centres undefined)	i
CCc1ccc(-c2cc3n(n2)CC(C)(C(=O)NC2CCCCC2)N(C2CCCC2)C3=O)cc1 (centres undefined)	i
O=C(C1CCN([S+](=O)([O-])c2cccs2)C1)N1CCC(c2nc3ncccc3[nH]2)CC1 (centres undefined)	i
Cc1ccc(Cn2c(=O)c3ccccc3n3c(=O)n(CC(=O)Nc4ccc(C)cc4Cl)nc23)cc1	i
COCC(=O)N[C@H]1CCN(C(=O)COC)[C@H](C(=O)N[C@H](Cc2c[nH]c3ccccc23)C(N)=O)C1	i
COc1cccc(CNc2nc3c(S(=O)(=O)c4ccc(Cl)cc4)nnn3c3ccccc23)c1	i
CC1(C(=O)NC2CCCCCCC2)Cn2c(cc3sccc32)C(=O)N1Cc1cccnc1 (centres undefined)	i
C=C1CC23CC1CCC2C12OC(=O)C(C)(C(O)C(O)C1O)C2C3C(=O)O (centres undefined)	i

4 entries from above in a different format.
mol: CC1(C(=O)NC2CCCCCC2)Cn2c(ccc2-c2ccco2)C(=O)N1Cc1ccccn1 (centres undefined)
  Methyltransferases = i
mol: CN(C)Cc1cc(CC2(NCc3cccc4c3OCO4)COC2)no1
  Methyltransferases = i
mol: CC1CCC2(C)C(CC(O)C(O)C23CO3)C1(C)CCC1=CC(=O)OC1O (centres undefined)
  Methyltransferases = i
mol: CCCC1c2ccc(C)n2CCN1C(=O)Nc1ccc(F)cc1F (centres undefined)
  Methyltransferases = i
